Sfp inh = Sfp phosphopantetheinyl transferase inhibition; Q9F4F7; AID 1490; Biochemical Sfp PPTase activity, qHTS; hit rate 3.5% among 310,000; Potency, µM, for inactives: max response, negative = inhibition, hits mostly inhibitors; active means well fitted inhibition curve with a large enough effect; inconclusive means small, poorly fitted or top-dose-only effect, or another doubt; inactive means no such curve, though single readings can be large or run the other way;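 further: the enzyme is Sfp with the accession as filed and its product quenches rhodamine fluorescence; potency means the concentration at half of the fitted maximal effect; 0% = enzyme reaction without inhibitor and -100% = no enzyme wells; top concentration of the series not given in the record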
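Buffer: 50 mM Hepes-Na pH 7.6, 10 mM MgCl2, 0.01% Nonidet P-40, 0.01% BSA. Enzyme 15 nM, pre-exposed to compound 15 min; substrates then added and fluorescence change tracked over 30 min.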
Six1-Eya2 blk = Six1/Eya2 interaction inhibition; Q15475+O00167; AlphaScreen GST-Six1/His-Eya2 binding, biochemical; active compounds read low; control for the full effect not named in the record; activity change, % (test concentration not listed); hit rate 0.56% among 360,000; AID 651725; in the data active = activity change below about -65%; inconclusive = about -30% to -65%; inactive = above about -30%; further: on the % scale 0 is the no-effect control and ±100 the full control effect
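GST-Six1 + His-Eya2 (5X stock: 250/500 nM); Tris pH 8.0, 300 mM NaCl, 0.05% BSA, 0.02% Tween 20; GSH donor/Ni acceptor beads; 1 h 37 °C dark; AlphaScreen readout.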
TRPV1 potentiator = enhances activation of the human vanilloid receptor TRPV1 | Q8NER1 | TRPV1-expressing cells, Fluo-8 calcium influx, capsaicin EC20 potentiation; host cell line not named in the record; control for the full effect not named in the record | potentiation, % at 8.33 µM | hit rate 0.02% among 320,000 | AID 540277; active means potentiation above 80%; inconclusive means 30% to 80%; inactive means below 30%; further: 0% is about no effect
Target sequence (Q8NER1 whole entry, looked up): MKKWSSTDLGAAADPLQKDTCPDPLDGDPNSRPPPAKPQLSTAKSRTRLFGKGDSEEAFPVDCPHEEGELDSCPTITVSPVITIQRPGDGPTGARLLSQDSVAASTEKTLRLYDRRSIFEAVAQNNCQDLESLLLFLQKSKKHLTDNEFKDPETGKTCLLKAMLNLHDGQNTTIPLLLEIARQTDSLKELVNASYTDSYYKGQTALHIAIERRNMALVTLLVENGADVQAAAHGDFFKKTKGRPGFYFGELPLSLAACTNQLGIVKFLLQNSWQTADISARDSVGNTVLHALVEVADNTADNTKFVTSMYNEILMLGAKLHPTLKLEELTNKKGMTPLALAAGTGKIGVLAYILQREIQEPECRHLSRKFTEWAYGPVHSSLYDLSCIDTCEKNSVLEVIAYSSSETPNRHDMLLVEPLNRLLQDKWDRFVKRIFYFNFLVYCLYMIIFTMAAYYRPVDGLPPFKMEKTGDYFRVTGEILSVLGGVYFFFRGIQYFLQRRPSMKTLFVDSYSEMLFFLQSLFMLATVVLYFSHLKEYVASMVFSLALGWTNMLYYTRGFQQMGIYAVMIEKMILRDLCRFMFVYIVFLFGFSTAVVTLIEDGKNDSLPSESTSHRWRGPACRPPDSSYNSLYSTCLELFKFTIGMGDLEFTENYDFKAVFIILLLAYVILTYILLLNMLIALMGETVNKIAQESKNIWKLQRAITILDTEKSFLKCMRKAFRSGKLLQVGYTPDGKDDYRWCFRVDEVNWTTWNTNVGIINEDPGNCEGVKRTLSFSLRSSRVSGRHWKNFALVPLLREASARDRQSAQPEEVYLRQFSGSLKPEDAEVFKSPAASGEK
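Cells expressing TRPV1 were dye-loaded with Fluo-8 and read kinetically: 10 s baseline, 3 min after compound (agonist portion), then 2 min after EC20 capsaicin (allosteric enhancer portion). Calcium-bound dye fluorescence at 480/520 nm.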
D2 potentiator = potentiates the human D2 dopamine receptor allosterically; P14416; DiscoveRx D2 beta-arrestin cells, luminescence, 90 min; 100% = 57 uM dopamine signal; potentiation, % (no concentration beside the values); hit rate 0.23% among 360,000; active = potentiation of 50% or more; inconclusive = 30% to 50%; inactive = 30% or less;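 further: compound concentration not given in the record; tested on top of an EC20 dose of dopamine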
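PathHunter beta-arrestin assay in DiscoveRx D2 cells. Compounds were added with an EC20 of dopamine (50 nM final) for 90 min at 37 deg C. Luminescence was read 1 h after detection reagent, with 57 uM dopamine as the EC100 control.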
D2 ag = agonists of human D2 dopamine receptor (beta-arrestin); DiscoveRx PathHunter D2 beta-arrestin, luminescence, 90 min; 100% = 57 uM dopamine signal; AID 624465; activation, % (concentration not given with the values); hit rate 0.084% among 360,000; P14416; in the data active = activation above about 40%; inconclusive = about 15% to 40%; inactive = below about 15%; further: compound concentration not given in the record; the text of the record calls up to 30% inactive
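Agonist mode: compounds alone added to overnight-plated D2 PathHunter cells for 90 min at 37 C, with 57 uM final dopamine (EC100) defining full response. Beta-arrestin recruitment detected by chemiluminescent reagent, read after 1 h at ambient temperature.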
CtBP-E1A inh = CtBP/E1A binding inhibition | activity change, % (test concentration not listed) | hit rate 0.49% among 340,000 | AlphaScreen GST-E1A/His-CtBP binding, 1536-well; active compounds read low; control for the full effect not named in the record | AID 651724; in the data active means activity change below about -65%; inconclusive means about -30% to -65%; inactive means above about -30%; further: on the % scale 0 is the no-effect control and ±100 the full control effect
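GST-E1A and His-tagged CtBP (125 nM each as 5X stock) were preincubated with pin-transferred compound for 2 h at 37 °C in the dark, then glutathione donor and nickel acceptor beads were added for 1 h before AlphaScreen reading.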
PINK1 expr mod = changes PINK1 expression; PINK1 immunofluorescence, high-content cytometry, 24 h; Potency, µM (doses to about 76.6 µM), without a hit: at the highest dose activation (PINK1 increase), hits mostly activators; hit rate 0.2% among 410,000; AID 624263; active = well fitted activation curve with a large enough effect; inconclusive = small, poorly fitted or top-dose-only effect; inactive = flat fitted curve, though single readings scatter; cell line not stated here;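 further: potency means the concentration at half of the fitted maximal effect; % of control where 0% means no effect; nearly all actives have a fitted effect of over 65% in size; a mitochondrial uncoupler was the plate control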
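Readout is PINK1 immunofluorescence, quantified alongside mitochondrial, cell and nuclear markers by laser-scanning microplate cytometry. Cells from a stable line were exposed to compound titrations (5 concentrations) for 24 hours, with CCCP controls.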
An asterisk follows results filed as active; ? = inconclusive; · = no result given; [ ] = dose if it differs, or a comment.

SMILES	Sfp inh	Six1-Eya2 blk	TRPV1 potentiator	D2 potentiator	D2 ag	CtBP-E1A inh	PINK1 expr mod
Cc1nc2cccc(C)n2c(=O)c1Cl	-2%	-11	29	3	-2.7	-3	0.7%
COc1ccccc1CC1(C)NC(=O)N(CC(=O)N2CC(C)OC(C)C2)C1=O (stereo not given)	21%	-10	2	-37	2.6	-3	3.6%
CC1(C(=O)NS(=O)(=O)c2cccc(F)c2)CCN1C(=O)Cc1ccc(-c2ccccc2)cc1 (stereo not given)	·	4	·	-3	-3.5	7	0.3%
C(=C\c1ccccc1)/CN1CCN(C(c2ccnc3ccccc23)c2nnnn2C2CCCCC2)CC1 (stereo not given)	·	-20	·	-14	-4.0	-19	5.0%
CC1CCC(NC(=O)COc2ccc(C(=O)c3ccccc3)cc2)CC1 (stereo not given)	-6%	10	5	-6	-5.7	-21	-0.5%
CCCn1c(N)c(C(=O)CSc2nnc(-c3c[nH]c4ccccc34)n2C2CC2)c(=O)[nH]c1=O	·	-5	·	-7	-1.9	0	0.6%
CN(CC(=O)Nc1nc2ccccc2s1)S(=O)(=O)c1ccc(Cl)cc1	11%	-2	1	0	-0.2	2	3.2%
CCN1C[C@@H]2[C@@H]3C(=O)N(Cc4ccccc4)C(=O)[C@@H]3[C@](C)(C1=O)N2C(=O)c1ccc(Cl)c(Cl)c1	·	4	·	1	1.6	9	0.6%
Cc1ccccc1N1C(=O)[C@@H]2Cc3ccccc3CN2C1=O	-9%	11	10	5	-3.4	12	-7.9%[38.3 µM]
CC(OC(=O)CNC(=O)c1ccc2c(c1)OCO2)C(=O)NCCC1=CCCCC1 (stereo not given)	4%	1	-3	7	-2.9	-6	1.8%
COc1cc(OC)cc(C(=O)N2CCN(Cc3ccc4c(c3)OCO4)CC2)c1	?	-2	3	-5	-5.4	5	0.9%
CCCCC(=O)Nc1ncc2c(n1)CC(C)(C)CC2=O	19%	0	-3	-6	-0.3	-1	-1.9%
Cc1nnc(SCc2ccccc2C#N)n1-c1ccccc1	13%	1	6	-2	-3.0	10	-1.7%
CCc1cc(=O)oc2cc(OCC(=O)N3CCC[C@H]3C(=O)O)ccc12	12%	3	2	-29	-4.2	-18	-0.3%
Cc1cccc2nc(CSc3nc4ccc([N+](=O)[O-])cc4[nH]3)cn12	-12%	-6	16	-9	0.5	13	7.1%
Cc1ccc(C)c2sc(NC(=O)c3ccc(N4C(=O)CCC4=O)cc3)nc12	15%	5	4	-3	-6.6	-13	1.9%
COC(CNC(=O)CNC(=S)N(Cc1ccccc1)Cc1cccs1)OC	6%	9	-6	-17	-1.3	0	1.4%
COCc1cc(=O)[nH]c(Sc2c(-c3ccccc3)c3ccc(Cl)cc3[nH]c2=O)n1	11%	25	12	-16	-5.7	0	0.9%
Cc1ccc(CNC(=O)C2CCCN2S(=O)(=O)c2ccc(Cl)cc2)cc1 (stereo not given)	29%	7	-3	-1	-3.7	-1	-0.5%
Cc1cccnc1NC(=S)NCCc1ccccc1	40µM*	?	-9	-14	-0.8	?	0.9%
COc1cc(/C=C2/C(=N)N3C(SC)=NSC3=NC2=O)ccc1OC(=O)c1ccco1	1%	-3	-14	-8	-7.2	0	6.8%
CCN(CC)S(=O)(=O)c1ccc(OC)c(NC(=O)c2cn(CC)c3nc(C)ccc3c2=O)c1	20%	5	7	-19	0.4	·	0.1%
COC(=O)Cc1ccc(NC(=O)c2ccccc2Cl)cc1	13%	24	12	-3	3.8	0	0.9%
O=C(Nc1ccc2c(c1)oc1ccccc12)c1ccncc1	-8%	-3	-16	-5	3.0	-7	·
CC(=O)Nc1ccc(-c2ccnc3c2CC(C)(C(=O)NCCc2ccccc2)O3)cc1 (stereo not given)	·	-5	·	-8	-6.2	-2	7.8%

By substructure, those above containing a furan ring, fused or not.
SMILES	Sfp inh	Six1-Eya2 blk	TRPV1 potentiator	D2 potentiator	D2 ag	CtBP-E1A inh	PINK1 expr mod
COc1cc(/C=C2/C(=N)N3C(SC)=NSC3=NC2=O)ccc1OC(=O)c1ccco1	1%	-3	-14	-8	-7.2	0	6.8%
O=C(Nc1ccc2c(c1)oc1ccccc12)c1ccncc1	-8%	-3	-16	-5	3.0	-7	·

Additional compounds follow:
SMILES	Sfp inh	Six1-Eya2 blk	TRPV1 potentiator	D2 potentiator	D2 ag	CtBP-E1A inh	PINK1 expr mod
Cc1ccc(NC(=O)C2COc3ccccc3O2)cc1C (stereo not given)	-4%	-15	4	-9	-2.6	6	-0.1%
N=C1S/C(=C\c2cn[nH]c2-c2ccc(F)cc2)C(=O)N1c1ccccc1F	-1%	-2	11	-3	-1.5	-1	0.9%
O=C(c1cc(C2CCCCN2S(=O)(=O)c2cccs2)on1)N1CCOCC1 (stereo not given)	·	10	·	-10	-2.3	6	-0.6%
Cn1ccnc1C(=O)Cc1ccc([N+](=O)[O-])cc1	·	2	·	6	7.2	-85*	1.7%
CC(C)Sc1nc2c(cnn2-c2ccccc2)c(=O)[nH]1	-13%	3	5	-2	-0.7	-8	3.0%
O=C1CC2(CCCCC2)Oc2ccc(O)cc21	15%	-4	-4	-1	-1.0	3	-2.3%[38.3 µM]
O=C1CNC(=S)N1c1nc2ccccc2s1	-14%	5	12	-5	-1.7	0	-1.6%
O=C(COC(=O)c1cccc(S(=O)(=O)N2CCCCCC2)c1)Nc1ccccc1C(F)(F)F	·	9	-3	-1	-1.2	9	3.9%
Cc1ccc(OC(=O)c2ccc(C)c([N+](=O)[O-])c2)cn1	-4%	-22	-18	-11	-2.3	-3	2.6%
COC(=O)C1=C(C)N(Cc2ccccc2)C(=NCc2ccccc2)N[C@H]1c1cccc(F)c1	-4%	-4	-9	-15	-1.0	0	-1.9%
COC(C[C@@H]1O[C@@H]1[C@H](O)[C@@H](C)OCc1ccccc1)OC	12%	1	24	-4	-0.2	3	1.0%
CN(C(=O)c1cccc(OC2CCN(S(=O)(=O)N(C)C)CC2)c1)C1CCOC1 (stereo not given)	24%	0	10	1	2.4	7	-0.4%
CCN(CC)CCN1C(=O)C(=O)/C(=C(/O)c2ccc(S(=O)(=O)N3CCOCC3)cc2)C1c1ccc(C)cc1 (stereo not given)	4%	4	14	5	2.2	0	1.1%
O=C(c1cccc([N+](=O)[O-])c1)c1ccc2c(c1)C(=O)NC2=O	-1%	0	-4	-1	-2.6	1	1.4%
O=C(NCc1ccccc1)c1cc(C2CCCCN2S(=O)(=O)Cc2ccccc2)on1 (stereo not given)	·	-1	·	-13	-4.6	-2	-0.2%
Cc1nn(C)cc1/C=N/NC(=O)CSc1ccccn1	?	-13	-1	-6	-5.3	5	-0.6%
COc1ccc(-c2csc(C)n2)cc1OC	5%	-3	0	-2	-1.9	3	-14%[38.3 µM]
Cc1ccccc1NC(=O)NCC1CCN(c2ccc(S(=O)(=O)N3CCOCC3)cc2)CC1	5%	5	1	-3	-3.0	0	0.5%
CCO[C@H]1OC(C(=O)O)=C[C@@H](c2ccccc2)[C@@H]1CCCO	·	10	·	-3	-1.1	5	0.4%
O=C(Nc1ccc(F)cc1)C1CCCN(c2cnccn2)C1 (stereo not given)	10%	-1	-16	-7	-3.8	·	6.9%
CCC(c1nnc(SCC(=O)Nc2ccc(C(=O)N(C)C)cc2)n1Cc1ccccc1)N(C)C (stereo not given)	16%	3	-3	-15	-4.4	-22	0.1%
CCCc1nc(-c2cc3ccccc3[nH]c2=O)no1	2%	-13	7	0	-1.6	-2	0.6%
CCOc1ccc(N(C(=O)CNC(=O)c2ccco2)C(C(=O)NCC2CCCO2)c2ccccc2)cc1 (stereo not given)	5%	-2	8	4	-0.7	0	2.2%
CN(C)c1ccc(C2C3C(=O)NC(=O)C3ON2c2ccc(Cl)cc2)cc1 (stereo not given)	-10%	-15	·	11	?	-6	4.9%
Cc1onc(-c2ccccc2)c1C(=O)NC(C)CCc1ccccc1 (stereo not given)	22%	5	-1	-2	-1.6	6	6.9%

2 neighbouring compounds from above:
SMILES	Sfp inh	Six1-Eya2 blk	TRPV1 potentiator	D2 potentiator	D2 ag	CtBP-E1A inh	PINK1 expr mod
Cc1ccc(NC(=O)C2COc3ccccc3O2)cc1C (stereo not given)	-4%	-15	4	-9	-2.6	6	-0.1%
N=C1S/C(=C\c2cn[nH]c2-c2ccc(F)cc2)C(=O)N1c1ccccc1F	-1%	-2	11	-3	-1.5	-1	0.9%

The list goes on.
SMILES	Sfp inh	Six1-Eya2 blk	TRPV1 potentiator	D2 potentiator	D2 ag	CtBP-E1A inh	PINK1 expr mod
O=C(NCCCc1ccccc1)c1cncc(Br)c1	10%	0	-18	-3	-1.0	2	0.3%
Cc1ccc(S(=O)(=O)NCc2cccnc2)s1	14%	7	-3	2	0.2	10	-0.3%
COC(=O)c1ccccc1C(=O)c1cccc2ccccc12	12%	14	0	7	2.3	17	5.3%
COCCNC(=O)C1(C)CCN(C(=O)c2ccc(C(F)(F)F)nc2C)C1 (stereo not given)	·	4	·	-2	-3.0	1	-0.6%
COc1ccc(Cc2nnc(NC(=O)CSc3ccccc3)s2)cc1OC	-6%	-3	0	-9	-0.1	-3	6.9%
COCCNC(=O)c1ccc(CS(=O)(=O)c2ccc(C)cc2)o1	-28%	4	14	-8	2.5	4	-0.5%
CC12CCC(C(=O)N3CCCCC3)([C@H](Br)C1=O)C2(C)C (stereo not given in full)	23%	-1	-5	-4	-4.0	7	-0.7%
CCOc1ccc(S(=O)(=O)Nc2ccc(C(=O)N(CC)CC(=O)NCc3cccs3)cc2)cc1	·	0	·	-8	-1.8	2	-0.5%
CN(CC(=O)N1CCN(c2ccc(F)cc2)CC1)S(=O)(=O)c1ccc2c(c1)c(=O)n(C)c(=O)n2C	3%	-25	14	-21	-0.9	·	-0.8%
Cc1cccc(NC(=O)[C@H](Cc2c[nH]c3ccccc23)NC(=O)[C@@H]2Cc3ccccc3CN2)c1	11%	-7	-2	-54	-5.6	0	2.9%
CCCNC(=O)C1(C)CCCN(Cc2c(C)nn(-c3ccccc3)c2C)C1 (stereo not given)	·	9	·	4	3.7	7	1.1%
Cc1c(C(=O)N(Cc2ccccc2)C2CCS(=O)(=O)C2)oc2ccccc12 (stereo not given)	8%	-2	1	-3	-5.1	-7	-0.4%
Cc1c(/C(O)=C2\C(=O)C(=O)N(CCN(C)C)C2c2ccco2)cnn1-c1ccccc1 (stereo not given)	7%	8	-9	-7	0.1	-3	·
COc1ccc(C(N)c2csc(Nc3cc(Oc4ccccc4)ncn3)n2)cc1 (stereo not given)	·	?	·	-5	6.2	?	4.9%

Outcome played no part in choosing rows; any-hit rate near 3.7%.
